Compound activity (PubChem BioAssay)
A1 inhib: blocks A1 activity | MEF A1-2A-BIM cells, caspase-Glo luminescence, 3 h; percent of clofoctol signal, DMSO as zero | AID 2241 | caspase activation, % (concentration not given with the values) | hit rate 0.51% among 21,000;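 active means most replicate scores above 10, or exactly half above 10 with mean activity above 10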;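 further: effector caspase 3 and 7 activity cleaving a DEVD luciferin substrate; 50 nL library stock added to about 30 µL; numbers are from one replicate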
BJeLR viab HTS: BJeLR cell viability reduction. BJeLR fibroblasts viability, CellTiterGlo ATP luminescence, 48 h; HRASV12, hTERT and SV40 LT/ST transformed. hit rate 0.64% among 30,000. viability loss activity score, % (test concentration not listed); in the data active means viability loss activity score above about 50%; about a fifth of its hits are not listed in these tables;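 further: higher score means fewer live cells and less ATP luminescence; stock transfer was 50 or 100 nL into about 30 µL; 0% = vehicle wells and 100% = a reference killing control; one replicate is shown; the record names a cut of 85%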
Active calls of the source: *; . = no result given. A portion of the library (hit frequency here may not be typical).

A first look:
SMILES | A1 inhib | BJeLR viab HTS
COc1ccc(C2=NN(C(=O)CSCc3ccco3)C(c3cccc(OC)c3OC)C2)cc1 (stereo not drawn) | 1.1 | 5.1
O=C(Cc1ccccc1)NC1CCCCC1NC(=O)Cc1ccccc1 (stereo not drawn) | 1.4 | 0.0
C[C@@H]1CN([C@H](C)CO)C(=O)c2cc(NC(=O)Nc3ccc(C(F)(F)F)cc3)ccc2O[C@@H]1CN(C)Cc1ccc(Oc2ccccc2)cc1 | -1.2 | -4.2
C[C@@H]1CN([C@H](C)CO)C(=O)c2cc(NS(C)(=O)=O)ccc2O[C@H]1CN(C)C(=O)Nc1ccc(F)cc1 | 0.2 | -4.9
O=c1[nH]cnc2c1cnn2-c1ccccc1 | -0.1 | -1.5
Cc1ccc(-c2cccc(-n3c(C)ccc3-c3cccc(N)c3)c2)o1 | 0.0 | -2.9
Cc1ccc(C2=NS(=O)(=O)N(C)C(C(=O)Nc3sc4c(c3C(N)=O)CCCC4)=C2)cc1 | -2.2 | 9.2
O=C(CSc1nnc(-c2ccccc2)n1-c1ccccc1)NC1CC1 | -0.2 | 0.3
CCC(C)(C)C1CCc2oc3ccc(NS(=O)(=O)c4cccs4)cc3c2C1 (stereo not drawn) | -0.1 | 3.1
S=c1cc[nH]c(=S)n1-c1nc(-c2ccccc2)sc1-c1ccccc1 | -0.2 | -1.0

This part in full, previewed entries included:
SMILES | A1 inhib | BJeLR viab HTS
COc1ccc(C2=NN(C(=O)CSCc3ccco3)C(c3cccc(OC)c3OC)C2)cc1 (stereo not drawn) | 1.1 | 5.1
O=C(Cc1ccccc1)NC1CCCCC1NC(=O)Cc1ccccc1 (stereo not drawn) | 1.4 | 0.0
C[C@@H]1CN([C@H](C)CO)C(=O)c2cc(NC(=O)Nc3ccc(C(F)(F)F)cc3)ccc2O[C@@H]1CN(C)Cc1ccc(Oc2ccccc2)cc1 | -1.2 | -4.2
C[C@@H]1CN([C@H](C)CO)C(=O)c2cc(NS(C)(=O)=O)ccc2O[C@H]1CN(C)C(=O)Nc1ccc(F)cc1 | 0.2 | -4.9
O=c1[nH]cnc2c1cnn2-c1ccccc1 | -0.1 | -1.5
Cc1ccc(-c2cccc(-n3c(C)ccc3-c3cccc(N)c3)c2)o1 | 0.0 | -2.9
Cc1ccc(C2=NS(=O)(=O)N(C)C(C(=O)Nc3sc4c(c3C(N)=O)CCCC4)=C2)cc1 | -2.2 | 9.2
O=C(CSc1nnc(-c2ccccc2)n1-c1ccccc1)NC1CC1 | -0.2 | 0.3
CCC(C)(C)C1CCc2oc3ccc(NS(=O)(=O)c4cccs4)cc3c2C1 (stereo not drawn) | -0.1 | 3.1
S=c1cc[nH]c(=S)n1-c1nc(-c2ccccc2)sc1-c1ccccc1 | -0.2 | -1.0
Cc1ccc(CN2CCN(/N=C\C=C\c3ccccc3)CC2)cc1 | -0.7 | 1.7
O=C1CCCN1CC(CN1CCOCC1)Sc1nnnn1-c1ccccc1 (stereo not drawn) | 0.8 | -0.8
C[C@@H]1CN([C@H](C)CO)C(=O)c2cc(NC(=O)Nc3ccc4c(c3)OCO4)ccc2O[C@H]1CN(C)Cc1ccc(C(F)(F)F)cc1 | 0.7 | -1.2
Oc1ccc2c(c1)OCC1c3cc4c(cc3OC21)OCO4 (stereo not drawn) | -1.0 | -6.1
C[C@H]1CN([C@@H](C)CO)C(=O)c2cc(NC(=O)C3CC3)ccc2O[C@H]1CN(C)Cc1ccc(C(=O)O)cc1 | 0.1 | 9.0
CN(C(=O)c1cc2c(=O)oc3ccccc3c2s1)c1ccccc1Cl | . | -1.1
CCS(=O)CCSc1nc(-c2ccc(Br)cc2)cc(-c2ccccc2)c1C#N (stereo not drawn) | -0.3 | -3.7
O=C(O)C1CC1C(=O)Nc1ccc(Oc2ccc(Cl)cc2C2CCCCC2)nc1 (stereo not drawn) | 0.6 | 4.5
C[C@H](CO)N1C[C@H](C)[C@@H](CN(C)CC2CC2)Oc2c(NS(=O)(=O)c3ccc(F)cc3)cccc2C1=O | . | -1.2
COc1ccc(CN(C)C[C@@H]2Oc3c(NC(=O)Nc4ccccc4)cccc3C(=O)N([C@H](C)CO)C[C@H]2C)cc1 | . | -10
Nc1nonc1C(=O)N1CCCCC1 | 0.9 | -1.9
Cc1cccc(N2C(=O)c3ccc(C(=O)Nc4c[nH]c(=O)[nH]c4=O)cc3C2=O)c1C | -0.5 | -3.4
C[C@@H]1CN([C@H](C)CO)C(=O)c2cc(NC(=O)Cc3ccccc3)ccc2O[C@@H]1CN(C)C(=O)Nc1cccc2ccccc12 | -0.1 | 2.2
CC(C)NC(=O)N(C)C[C@@H]1Oc2c(NS(=O)(=O)c3ccc(F)cc3)cccc2C(=O)N([C@@H](C)CO)C[C@H]1C | . | 24
N#CCSc1nc2cc(C(=O)NCc3ccccc3)ccc2c(=O)n1CCc1ccccc1 | 22* | 0.6
(continued)
SMILES | A1 inhib | BJeLR viab HTS
CCc1ccc(NC(=O)CN(C)S(=O)(=O)c2cc(Br)cnc2N)cc1 | -0.3 | 4.4
Cc1ccc(N/C(N)=N/c2nc(C)cc(=O)[nH]2)c(C)c1 | -0.6 | -0.6
C[C@H](CO)N1C[C@H](C)[C@H](CN(C)C)Oc2c(NC(=O)c3ccncc3)cccc2C1=O | . | -0.2
COc1cccc(C2CC(C(F)(F)F)n3ncc(C(=O)O)c3N2)c1 (stereo not drawn) | -1.1 | 0.2
C[C@@H]1CN([C@@H](C)CO)C(=O)c2cccc(NC(=O)c3cnccn3)c2O[C@@H]1CN(C)Cc1ccc(-c2ccccc2)cc1 | . | -5.1
C[C@@H]1CN([C@H](C)CO)C(=O)c2cc(NC(=O)CCCN(C)C)ccc2O[C@@H]1CN(C)Cc1ccc(Oc2ccccc2)cc1 | -0.5 | -8.4
Cc1noc(C)c1S(=O)(=O)Nc1ccc2c(c1)C(=O)N([C@@H](C)CO)C[C@@H](C)[C@H](CN(C)S(=O)(=O)c1cn(C)cn1)O2 | -0.2 | 0.0
Cc1cc(C)c2c3n(nc2n1)C(=O)NC(C(F)(F)F)(C(F)(F)F)N3 | . | -3.2
O=C1Nc2cc(C(=O)N3CCN(c4ccccc4)CC3)ccc2Sc2ccccc21 | 1.0 | 0.9
O=C(C1Sc2nnc(-c3ccccc3)n2NC1c1ccccc1)N1CCCC1 (stereo not drawn) | 0.0 | -1.8
C[C@H](CO)N1C[C@H](C)[C@@H](CN(C)C(=O)Nc2ccccc2)Oc2ccc(NC(=O)Cc3cn(C)c4ccccc34)cc2C1=O | 0.4 | -2.1
C[C@@H]1CN([C@@H](C)CO)C(=O)c2cc(NC(=O)CCCN(C)C)ccc2O[C@@H]1CN(C)Cc1ccc(-c2ccccc2)cc1 | 0.7 | 3.8
C[C@H](CO)N1C[C@H](C)[C@@H](CN(C)C(=O)Nc2cccc3ccccc23)Oc2ccc(NC(=O)Nc3ccc(F)cc3)cc2C1=O | 0.3 | -0.3
CCN1C(=O)c2ccccc2S(=O)(=O)c2ccc(C(=O)NC3CCCC3)cc21 | . | -3.9
C[C@H](CO)N1C[C@H](C)[C@@H](CN(C)S(=O)(=O)c2cccs2)Oc2ccc(NS(=O)(=O)c3ccc(Cl)cc3)cc2C1=O | 0.1 | -1.5
Cc1noc(C)c1S(=O)(=O)NC1CCCCCC1 | . | -1.3
C[C@H]1CN([C@@H](C)CO)C(=O)c2cc(NC(=O)c3ccncc3)ccc2O[C@@H]1CN(C)Cc1ccc(Oc2ccccc2)cc1 | 1.6 | -5.3
C[C@H]1CN([C@@H](C)CO)C(=O)c2cc(NC(=O)c3ccncc3)ccc2O[C@@H]1CN(C)Cc1ccc2c(c1)OCO2 | -0.5 | -4.5
C[C@@H]1CN([C@@H](C)CO)C(=O)c2cc(NC(=O)Cc3ccccc3)ccc2O[C@@H]1CN(C)C(=O)Nc1cccc2ccccc12 | -0.3 | 1.3
CC(C)NC(=O)Nc1cccc2c1O[C@H](CN(C)Cc1ccc(Cl)c(Cl)c1)[C@@H](C)CN([C@@H](C)CO)C2=O | . | -0.9
C[C@@H]1CN([C@H](C)CO)C(=O)c2cccc(NC(=O)C3CCCCC3)c2O[C@H]1CN(C)Cc1ccc(C(F)(F)F)cc1 | . | -1.3
O=c1c2sccc2nc(SCc2cc(=O)n3cc(Br)ccc3n2)n1C1CC1 | 0.7 | -1.9
CCOC(=O)c1c(CC(C)C)csc1NC(=O)c1ccccc1OC(C)=O | -0.1 | 0.7
CC(C)NC(=O)Nc1cccc2c1O[C@H](CN(C)C(=O)Nc1ccc(F)cc1)[C@@H](C)CN([C@@H](C)CO)C2=O | . | -4.6
C[C@H](CO)N1C[C@H](C)[C@@H](CN(C)S(=O)(=O)c2ccccc2)Oc2c(NS(=O)(=O)c3cccs3)cccc2C1=O | . | -2.4
Later entries:
SMILES | A1 inhib | BJeLR viab HTS
O=C(OCc1ccccc1O[C@@H]1O[C@H](CO)[C@@H](O)[C@H](O)[C@H]1O)c1c(O)cccc1O[C@@H]1O[C@H](CO)[C@@H](O)[C@H](O)[C@H]1O | -0.4 | -7.0
Nc1nc(Cl)nc2c1ncn2C1OC(CO)[C@H](O)[C@H]1F (stereo partly drawn) | 1.2 | 54*
CNC[C@@H]1Oc2c(NC(=O)Nc3ccc(OC)cc3)cccc2C(=O)N([C@H](C)CO)C[C@H]1C | . | -0.6
Cc1onc(-c2ccccc2)c1C(=O)N(C)CCc1ccccn1 | 0.5 | -2.4
CCc1c(C)n([O-])c2c([n+]1=O)CCCCC2 | -0.1 | -8.4
Cc1ccc(S(=O)(=O)Nc2ccc3c(c2)C(=O)N([C@H](C)CO)C[C@H](C)[C@H](CN(C)Cc2ccc4c(c2)OCO4)O3)cc1 | 0.5 | 1.5
C=C1[C@@H]2CC[C@H]3[C@]4(C)C[C@H](O)C[C@@H](C(=O)OC)[C@H]4CC[C@]3(C2)[C@H]1O | -0.1 | -4.8
C[C@H](CO)N1C[C@H](C)[C@@H](CN(C)CC2CCCCC2)Oc2ccc(NC(=O)Cn3cnnn3)cc2C1=O | -0.2 | 2.6
Cc1ccc(CC2C(=O)N(c3cccc(C(F)(F)F)c3)C(=O)C2C)cc1 (stereo not drawn) | -0.4 | 1.1
C[C@@H]1CN([C@@H](C)CO)C(=O)c2cccc(NC(=O)Nc3ccccc3)c2O[C@@H]1CN(C)C(=O)Nc1ccc(C(F)(F)F)cc1 | . | -5.9
CC(=O)O[C@@H]1CC2C(C)(C)C(=O)C=C[C@]2(C)C2CC[C@@]3(C)[C@H](c4ccoc4)OC(=O)[C@H]4O[C@]43[C@@]21C (stereo partly drawn) | -0.5 | -4.9
C[C@@H]1CN([C@@H](C)CO)C(=O)c2cc(NS(C)(=O)=O)ccc2O[C@H]1CN(C)Cc1ccc(-c2ccccc2)cc1 | 0.3 | -0.9
C[C@H](CO)N1C[C@H](C)[C@@H](CN(C)S(=O)(=O)c2ccccc2)Oc2c(NS(=O)(=O)c3ccc(F)cc3)cccc2C1=O | . | 2.2
COc1ccc(CN(C)C[C@H]2Oc3ccc(NC(=O)Nc4ccc5c(c4)OCO5)cc3C(=O)N([C@H](C)CO)C[C@H]2C)cc1 | -0.4 | 4.4
Cc1cc(N2CCC(C)CC2)nc2ccc(NC(=O)c3ccc4c(c3)OCO4)cc12 | . | 2.0
O=C(COc1ccccc1)NCCc1nc2ccccc2n1Cc1ccccc1 | 0.3 | -0.4
C[C@H](CO)N1C[C@H](C)[C@@H](CN(C)C(=O)Nc2ccc3c(c2)OCO3)Oc2c(NS(=O)(=O)c3ccc(Cl)cc3)cccc2C1=O | . | 8.8
O=C(CSc1nc2ccccc2[nH]1)Nc1ccc(OC(F)(F)F)cc1 | 1.6 | 6.7
C[C@@H]1CN([C@H](C)CO)C(=O)c2cc(NS(C)(=O)=O)ccc2O[C@@H]1CN(C)S(=O)(=O)c1cn(C)cn1 | 0.2 | -2.0
CN=C(C)c1c(O)c2ccccc2oc1=O | -2.9 | 1.4
COc1ccc(S(=O)(=O)N(C)C[C@@H]2Oc3c(NC(=O)Nc4ccc(F)cc4)cccc3C(=O)N([C@H](C)CO)C[C@H]2C)cc1 | . | 2.0
CCC(Sc1nc2cc(OC)c(OC)cc2c(=O)n1Cc1ccco1)C(=O)Nc1ccc(C)cc1 (stereo not drawn) | -0.2 | 4.9
CCOc1ccc(Nc2nc3cc(C)ccc3cc2C)cc1 | -0.6 | 7.3
C[C@H](CO)N1C[C@H](C)[C@@H](CN(C)Cc2ccc(-c3ccccc3)cc2)Oc2c(NC(=O)NC3CCCCC3)cccc2C1=O | . | 1.1
Cc1ccc(C(=O)/C=C2/NCCNC2=O)cc1 | -4.6 | 4.6

Two entries from above, in CSV form:
mol,A1 inhib,BJeLR viab HTS
Nc1nc(Cl)nc2c1ncn2C1OC(CO)[C@H](O)[C@H]1F (stereo partly drawn),1.2,54*
CNC[C@@H]1Oc2c(NC(=O)Nc3ccc(OC)cc3)cccc2C(=O)N([C@H](C)CO)C[C@H]1C,.,-0.6

(next part)
SMILES | A1 inhib | BJeLR viab HTS
Cc1noc(C)c1S(=O)(=O)N(C)C[C@@H]1Oc2c(NS(=O)(=O)c3cn(C)cn3)cccc2C(=O)N([C@@H](C)CO)C[C@@H]1C | . | 6.0
C[C@@H]1CN([C@@H](C)CO)C(=O)c2cc(NC(=O)Cc3cn(C)c4ccccc34)ccc2O[C@@H]1CN(C)C(=O)Nc1ccc(F)cc1 | 0.1 | 0.9
COc1ccc(NC(=O)Nc2ccc3c(c2)C(=O)N([C@H](C)CO)C[C@@H](C)[C@@H](CN(C)S(=O)(=O)c2cccs2)O3)cc1 | 0.3 | 12
CNC[C@@H]1Oc2ccc(NC(=O)Nc3c(C)noc3C)cc2C(=O)N([C@@H](C)CO)C[C@@H]1C | 0.0 | 0.2
CNC[C@@H]1Oc2c(NC(=O)Nc3ccc(C(F)(F)F)cc3)cccc2C(=O)N([C@@H](C)CO)C[C@@H]1C | . | -2.8
O=C(Nc1ccccc1Br)c1ccccc1Oc1ccccc1 | 0.4 | -1.4
O=C(CCN(Cc1ccco1)S(=O)(=O)c1ccc(Cl)cc1)Nc1ccc(Cl)cc1 | 0.5 | 0.7
